# Screening data as filed in PubChem.
# D2 potentiator = positive allosteric modulators of human D2 dopamine receptor; P14416; DiscoveRx D2 beta-arrestin cells, luminescence, 90 min; 100% = 57 uM dopamine signal; potentiation, % (test concentration not listed); 360,000 tested, 0.23% active; AID 624464; active = potentiation of 50% or more; inconclusive = 30% to 50%; inactive = 30% or less;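 further: compound concentration not given in the record; tested on top of an EC20 dose of dopamine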
# Target sequence (P14416 whole entry, looked up): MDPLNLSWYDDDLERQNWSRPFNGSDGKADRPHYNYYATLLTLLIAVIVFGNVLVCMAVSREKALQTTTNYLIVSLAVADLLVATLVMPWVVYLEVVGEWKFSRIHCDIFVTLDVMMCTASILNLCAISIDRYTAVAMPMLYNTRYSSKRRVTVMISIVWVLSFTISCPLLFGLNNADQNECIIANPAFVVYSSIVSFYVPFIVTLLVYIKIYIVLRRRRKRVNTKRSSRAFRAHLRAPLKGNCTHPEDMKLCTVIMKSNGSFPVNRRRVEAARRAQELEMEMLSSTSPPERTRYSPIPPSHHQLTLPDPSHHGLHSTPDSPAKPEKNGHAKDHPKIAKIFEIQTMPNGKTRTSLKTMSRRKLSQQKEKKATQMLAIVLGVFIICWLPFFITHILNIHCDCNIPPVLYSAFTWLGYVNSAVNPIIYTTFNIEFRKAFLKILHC
#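 D2 cells co-treated with compound plus 50 nM dopamine (EC20) for 90 min at 37 deg C to detect potentiation. Beta-arrestin recruitment was read as enzyme-fragment luminescence after 1 h at ambient temperature. Full response was set by 57 uM dopamine.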
# PINK1 expr mod = PINK1 expression modulation; PINK1 immunofluorescence, high-content cytometry, 24 h; AID 624263; 410,000 tested, 0.2% active; Potency, µM (top dose mostly 76.6 µM), for inactives: top-dose activation (PINK1 increase), actives largely listed as activators; active = well fitted activation curve with a large enough effect; inconclusive = small, poorly fitted or top-dose-only effect; inactive = flat fitted curve, though single readings scatter; cell line not stated here;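 further: potency means the concentration at half of the fitted maximal effect; % of control where 0% means no effect; nearly all actives have a fitted effect of over 65% in size; a mitochondrial uncoupler was the plate control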
#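 Fluorescence from anti-PINK1 antibody, together with nuclear and cell stains, was scanned on a laser-scanning cytometer. Before staining, stable-line cells were incubated 24 hours with compounds at 5 concentrations; primary antibody 12 h at 10 degrees C.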
# Six1-Eya2 blk = inhibitors of human Six1/Eya2 interaction. activity change, % (test concentration not listed). AlphaScreen GST-Six1/His-Eya2 binding, biochemical; stronger effect = lower value; control for the full effect not named in the record. AID 651725. 360,000 tested, 0.56% active; in the data active = activity change below about -65%; inconclusive = about -30% to -65%; inactive = above about -30%; further: on the % scale 0 is the no-effect control and ±100 the full control effect; compound concentration not given in the record
#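 GST-Six1 + His-Eya2 (5X stock: 250/500 nM); Tris pH 8.0, 300 mM NaCl, 0.05% BSA, 0.02% Tween 20; GSH donor/Ni acceptor beads; 1 h 37 °C dark; AlphaScreen readout.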
# TRPML1 ag = agonists of human TRPML1 channel | Q9GZU1 | TRPML1-expressing cells, Ca2+ dye fluorescence, FDSS; host cell line not named in the record; reference of the full effect not given here | activation, % (no concentration beside the values) | 410,000 tested, 0.12% active | AID 624414; in the data active = activation above about 50%; inconclusive = about 30% to 50%; inactive = below about 30%; further: 0% is about no effect; the text of the record puts the active cut at 80%
# Target sequence (Q9GZU1 whole entry, looked up): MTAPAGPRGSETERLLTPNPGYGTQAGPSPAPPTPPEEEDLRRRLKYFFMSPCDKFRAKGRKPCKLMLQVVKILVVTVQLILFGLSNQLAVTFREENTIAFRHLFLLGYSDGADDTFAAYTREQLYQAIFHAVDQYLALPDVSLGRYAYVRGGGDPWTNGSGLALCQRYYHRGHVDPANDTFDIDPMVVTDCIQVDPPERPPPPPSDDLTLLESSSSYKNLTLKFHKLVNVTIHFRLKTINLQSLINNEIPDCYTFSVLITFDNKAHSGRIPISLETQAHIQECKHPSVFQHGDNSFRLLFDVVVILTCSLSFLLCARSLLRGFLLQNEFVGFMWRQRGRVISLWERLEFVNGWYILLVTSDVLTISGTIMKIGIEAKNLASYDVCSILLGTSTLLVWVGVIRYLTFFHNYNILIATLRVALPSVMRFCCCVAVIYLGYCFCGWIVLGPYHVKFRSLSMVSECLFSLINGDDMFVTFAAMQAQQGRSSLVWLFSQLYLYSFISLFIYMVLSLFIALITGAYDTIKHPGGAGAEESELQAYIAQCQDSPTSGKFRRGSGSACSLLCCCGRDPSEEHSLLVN
#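 In this qHTS format, compounds were pin-transferred onto Ca8-dye-loaded TRPML1-DL cells induced with Tet overnight, and intracellular Ca2+ fluorescence was recorded kinetically for 110 s after a 10 s baseline. A subsequent 4uM final 54-4 (EC80) addition followed by a second 110 s read served as the antagonist phase.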
# D2 agonist = human D2 receptor agonism in beta-arrestin assay; AID 624465; activation, % (test concentration not listed); 360,000 tested, 0.084% active; P14416; DiscoveRx PathHunter D2 beta-arrestin, luminescence, 90 min; 100% = 57 uM dopamine signal; in the data active = activation above about 40%; inconclusive = about 15% to 40%; inactive = below about 15%; further: compound concentration not given in the record; the text of the record calls up to 30% inactive
#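 Agonist mode: compounds alone added to overnight-plated D2 PathHunter cells for 90 min at 37 C, with 57 uM final dopamine (EC100) defining full response. Beta-arrestin recruitment detected by chemiluminescent reagent, read after 1 h at ambient temperature.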
# TRPML1 inh = human mucolipin-1 channel inhibition. AID 624415. Q9GZU1. 390,000 tested, 0.02% active. activity change, negative = inhibition, % (test concentration not listed). TRPML1-inducible cells, Ca2+ dye fluorescence, FDSS; stronger effect = lower value; inhibition of EC80 agonist-evoked calcium signal; in the data active means activity change below about -50%; inconclusive means about -30% to -50%; inactive means above about -30%;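 further: stimulus is agonist 54-4 at its EC80 concentration; on the % scale 0 is the no-effect control and ±100 the full control effect; compound concentration not given in the record; the text of the record puts the active cut at -80%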
#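 TRPML1-DL cells, Tet-induced overnight (~16 h, 37 °C) at 1,500 cells/well, were loaded with Ca8 no-wash dye plus quencher for 45-90 min at room temperature. Compounds were pinned during FDSS kinetic reading; agonist 54-4 at EC80 (4 uM final) then added.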
# Numbers without * were called inactive; / = no result given; & = joins results of further samples; [ ] = dose if it differs, or a comment. The order is random, and some 1% of all compounds hit somewhere here.
# Screens by letter – A = D2 potentiator; B = PINK1 expr mod; C = Six1-Eya2 blk; D = TRPML1 ag; E = D2 agonist; F = TRPML1 inh
> O=C(NCCN1CCOC1=O)C1CCC(=O)N(CCc2ccc(Cl)cc2)C1 (configuration not stated)
  A: 16.8; B: -0.7%; C: 2.1; D: -0.4; E: -3.7; F: -11.1
> Cc1cc(C)n(CC(O)Cn2c3ccc(Br)cc3c3cc(Br)ccc32)c(=O)n1 (configuration not stated)
  A: -5.3; B: -6.1%[38.3 µM]; C: -19.6; D: 1.3; E: 3.4; F: -7.1
> CC(C)CC(NC(=O)C(CC(C)C)NC(=O)C(Cc1ccc(OCc2ccccc2)cc1)NC(=O)OC(C)(C)C)C(N)=O (configuration not stated)
  A: -9.2; B: 11.4%; C: 75.7; D: -0.3; E: 0.7; F: -13.9
> CCn1c(=O)c(C(=O)CN2CCN(Cc3ccc4c(c3)OCO4)CC2)c(N)n(Cc2ccccc2)c1=O
  A: -14.0; B: 0.9%; C: 32.3; D: 0.2; E: 0.0; F: -3.1
> COc1ccc(CCC(=O)NCc2ccc3c(c2)CCN3C(=O)c2ccccc2)cc1
  A: /; B: -0.3%; C: /; D: 1.7; E: /; F: -23.1
> CCOC(=O)c1cc(CC)sc1NC(=O)c1cc(OC)c(OC)c(OC)c1
  A: -23.2; B: 7.0%; C: 13.6; D: -0.4; E: -0.3; F: -4.6
> CCCC(CCC)C(=O)Nc1ccncc1
  A: -4.8; B: 0.9%; C: -1.2; D: 0.3; E: -5.3; F: -10.7
> COCCNC(=O)c1cccc(OC2CCN(Cc3ccc(F)cc3OC)CC2)c1
  A: -5.7; B: -0.1%; C: -1.2; D: 0.2; E: -5.9; F: 21.6
> CN1CCN(c2nc(-c3cccs3)cc(C(F)(F)F)n2)CC1
  A: -22.5; B: -0.2%; C: -18.3; D: -0.8; E: -1.0; F: 0.6
> CC(/C=N/NC(=O)c1ccco1)=C\c1ccccc1
  A: -16.4; B: -2.8%; C: -1.0; D: 1.6; E: 2.0; F: 6.4
> C[C@@H]1CN([C@H](C)CO)S(=O)(=O)c2ccc(Br)cc2O[C@@H]1CN(C)C(=O)NC1CCCC1
  A: 3.2; B: 1.0%; C: -15.5; D: -0.2; E: -12.8; F: 7.0
> O=C(O)CCc1ccc(-c2ccc(Br)cc2)n1CC(=O)O
  A: 0.6; B: 3.4%[38.3 µM]; C: -0.1; D: 0.1; E: -0.6; F: 7.2
> Cc1nc(SCC(=O)NCc2ccc(F)cc2)c2c(=O)n(C)c(=O)n(C)c2n1
  A: -4.8; B: -0.9%; C: -1.0; D: 0.3; E: -6.0; F: 9.3
> COc1ccccc1NC(=O)c1ccc(NC(=O)CSc2ncccn2)cc1
  A: -1.3; B: -1.0%; C: 7.6; D: -0.5; E: -5.5; F: 25.9
> C[C@@H]1CN([C@@H](C)CO)C(=O)c2cc(NC(=O)CCC(F)(F)F)ccc2O[C@H]1CN(C)S(=O)(=O)c1ccc(Cl)cc1
  A: -12.8; B: 0.2%; C: -3.8; D: 2.5; E: -2.7; F: -5.6
> O=C(COC(=O)c1ccc2ncsc2c1)NC(=O)NCc1ccccc1
  A: -5.6; B: 1.3%; C: -2.2; D: 0.6; E: 3.2; F: -4.6
> COc1ccccc1CNC(=O)CS(=O)Cc1nc(-c2ccc(OC)c(OC)c2)oc1C (configuration not stated)
  A: -1.3; B: -1.5%&-1.3%; C: -7.2; D: 4.7&0.6; E: -4.5; F: -3.5&-21.3
> COc1ccc(OC)c(-c2cn(S(=O)(=O)c3ccccc3)nc2N)c1
  A: -0.3; B: 3.1%[38.3 µM]; C: -15.3; D: 2.1; E: -3.6; F: 4.9
> O=[N+]([O-])c1ccc(CP(=O)(c2ccccc2)c2ccccc2)cc1
  A: -33.8; B: -1.3%; C: 8.2; D: 0.4; E: -2.8; F: 12.4
> Cn1ccc2c(N3c4ccccc4CCc4ccccc43)cc3c(c21)C1CCC3O1 (configuration not stated)
  A: 9.1; B: 3.0%; C: -6.3; D: 0.8; E: 10.1; F: 12.4
> Nn1c(SCC(=O)Nc2cc(C(F)(F)F)ccc2Cl)nncc1=O
  A: -16.4; B: 1.1%; C: -6.4; D: 0.7; E: -1.8; F: 16.0
> Cc1cc(OCC(O)CN2CCN(CCO)CC2)ccc1C(C)C (configuration not stated)
  A: -8.8; B: -1.1%; C: 1.2; D: 3.8; E: -2.3; F: -11.8
> NC1=NC[C@@H](Cc2ccc(O)cc2)N1CC1CCCCC1
  A: -27.1; B: 3.9%; C: -27.9; D: -1.1; E: -0.1; F: -8.5
> COc1ccccc1C(=O)NNC(=O)CCC(=O)NCc1ccccc1
  A: -9.2; B: 5.2%; C: -1.4; D: -0.2; E: 1.0; F: -3.8
> COc1ccc(C/C(C)=N/NC(=O)c2ccc(Cl)cc2)cc1
  A: -15.2; B: 2.7%; C: 4.7; D: 1.6; E: 2.1; F: -11.7
> COc1ccc(NS(=O)(=O)c2cc([N+](=O)[O-])ccc2NN=Cc2ccccc2OCC(=O)O)cc1
  A: -9.7; B: 2.0%; C: -16.8; D: 0.4; E: -4.9; F: 5.0
> CCOc1ccc(/C=C/c2nc(C#N)c(N3CCN(c4ccc(OC)cc4)CC3)o2)cc1
  A: /; B: 2.8%; C: /; D: -1.0; E: /; F: 9.2
> O=C(NC1CC(=O)N(c2cccc(F)c2)C1)C(c1ccccc1)c1ccccc1 (configuration not stated)
  A: /; B: 1.3%; C: /; D: 0.4; E: /; F: -1.9
> Cc1ccc(NC(=O)CCC(=O)NNC(=O)NC2CCCCC2)c(C)c1
  A: -2.1; B: -1.2%; C: 5.7; D: 0.9; E: -1.9; F: 6.8
> CCOC(=O)[C@H]1[C@H]2COc3ccc(C)cc3[C@@H]2N2C(=O)c3ccccc3NC(=O)[C@@]12C
  A: -32.1; B: 0.9%; C: -3.4; D: -1.0; E: 1.4; F: -13.2
> COc1ccccc1CC(=O)N(CCC#N)CCC#N
  A: 7.6; B: -1.1%; C: 2.4; D: -0.5; E: -2.5; F: 2.3
> COc1ccc(Oc2nc3ccccc3n(C)c2=O)cc1
  A: -11.2; B: -1.5%[38.3 µM]; C: -1.3; D: -0.2; E: -2.6; F: -2.4
> CCc1ccc(-n2c(=O)c3cccnc3n2CC(=O)NCc2ccccc2)cc1
  A: /; B: 1.4%; C: /; D: 5.2; E: /; F: 29.3
> O=C(O)c1ccccc1C(=O)Nc1ccc(-n2nc(C(F)(F)F)cc2C(F)(F)F)cc1
  A: -2.3; B: -2.1%; C: 45.3; D: 2.6; E: -1.0; F: 2.3
> CCN(c1ccccc1)S(=O)(=O)c1ccc(OCc2c(C)noc2C)cc1
  A: -5.6; B: -1.5%; C: 6.7; D: -0.2; E: -1.3; F: 15.1
> O=S1(=O)CCOC[C@H](CC2CCCCC2)N1Cc1cccc(Cl)c1
  A: -4.9; B: -0.3%; C: 0.1; D: 1.0&-0.4; E: -0.5; F: 56.5
> Cc1ccc(CCC(=O)Nc2cc(Cl)ccc2Cl)o1
  A: -3.5; B: 1.8%; C: -6.0; D: 0.2; E: -0.8; F: -3.4
> CCOC(=O)C1=C(O)C(=O)N(c2ccc(S(N)(=O)=O)cc2)C1c1ccc([N+](=O)[O-])cc1 (configuration not stated)
  A: -2.4; B: 1.9%; C: -0.6; D: /; E: -4.1; F: /
> O=C1CC(CC(=O)N/N=C/c2ccccc2[N+](=O)[O-])=NN1
  A: -23.8; B: 0.3%; C: -15.3; D: 1.8; E: -0.2; F: -10.3
> CC(C)(C)c1ccc(S(=O)(=O)N2CCN(Cc3noc(CCC(=O)N4CCCCC4)n3)CC2)cc1
  A: /; B: 1.2%; C: /; D: 1.7; E: /; F: -16.5

# Rewritten with tabs: entries from further up.
SMILES	D2 potentiator	PINK1 expr mod	Six1-Eya2 blk	TRPML1 ag	D2 agonist	TRPML1 inh
O=S1(=O)CCOC[C@H](CC2CCCCC2)N1Cc1cccc(Cl)c1	-4.9	-0.3%	0.1	1.0&-0.4	-0.5	56.5
Cc1ccc(CCC(=O)Nc2cc(Cl)ccc2Cl)o1	-3.5	1.8%	-6.0	0.2	-0.8	-3.4

# The listing continues.
# Screens by letter – A = D2 potentiator; B = PINK1 expr mod; C = Six1-Eya2 blk; D = TRPML1 ag; E = D2 agonist; F = TRPML1 inh
> CCn1c(=O)n(CC(=O)Nc2cc(OC)ccc2OC)c(=O)c2ccccc21
  A: -5.0; B: 2.8%; C: 2.4; D: 0.5; E: 1.3; F: 12.1
> O=S(=O)(c1ccc(NC(=S)NC2CCCC2)cc1)N1CCCC1
  A: -1.0; B: 2.5%; C: 1.5; D: -0.7; E: 1.2; F: -4.6
> CN(C)C(CNc1ncccn1)c1ccccc1 (configuration not stated)
  A: -3.3; B: -0.2%; C: -1.2; D: 1.1; E: -2.3; F: 0.7
> O=C(OCC1CC(c2ccccn2)=NO1)c1ccc(Br)cc1 (configuration not stated)
  A: 5.8; B: 6.2%[38.3 µM]; C: 1.4; D: -0.4; E: -3.2; F: 9.4
> Cc1cc(C)cc(-n2c(SCC(=O)NCC3CCCO3)nc3c([nH]c4ccccc43)c2=O)c1 (configuration not stated)
  A: /; B: -4.2%; C: /; D: 0.1; E: /; F: 11.0
> CCOC(=O)c1cnn(CCOC(=O)c2ccccc2)c1NC(=O)c1ccccc1
  A: 1.0; B: 6.0%; C: 14.7; D: -0.1; E: -0.2; F: 6.1
> O=C(Nc1ccc(C(=O)c2ccc(C(=O)O)c(C(=O)O)c2)cc1)c1ccccc1
  A: -19.0; B: -1.0%; C: -0.1; D: -0.7; E: -6.9; F: -4.7
> COc1ccc(NC(=O)C(=O)NNC(=O)COc2ccc(Cl)cc2)c(OC)c1
  A: -9.2; B: 0.2%; C: -15.2; D: 0.9; E: 1.3; F: 2.9
> Cc1cc(Br)ccc1-n1[nH]c(C)c(C=Nc2cccc3nsnc23)c1=O
  A: 3.1; B: 0.9%; C: 1.0; D: -0.3; E: -6.7; F: 1.2
> CC(C)CN(C(=O)CN1CCN(S(=O)(=O)c2ccc3ccccc3c2)CC1)c1c(N)n(CC(C)C)c(=O)[nH]c1=O
  A: -7.8; B: 0.8%; C: 3.5; D: 0.0; E: -5.0; F: 9.0
> O=C1CCC(=O)N1c1ccc(NC2CCN(Cc3ccccc3)CC2)c([N+](=O)[O-])c1
  A: -13.0; B: -0.1%; C: 5.1; D: 0.4; E: -15.2; F: -14.0
> CCCCNCc1ccc(SC)cc1
  A: -19.7; B: 1.8%[38.3 µM]; C: 1.4; D: 1.3; E: -0.6; F: 6.6
> CC1CCC(NC(=O)c2cc3c(s2)CCCC3)CC1 (configuration not stated)
  A: -7.5; B: 3.0%; C: 0.8; D: 18.6; E: -0.8; F: 2.5
> O=C(C1CCN(S(=O)(=O)c2cccc3nsnc23)CC1)N1CCc2ccccc2C1
  A: 15.9; B: -1.1%; C: -10.1; D: 2.4; E: -0.4; F: 0.0
> CCCNC(=O)Nc1ccsc1C(=O)OC
  A: -5.9; B: -0.5%; C: 1.3; D: 0.3; E: -5.2; F: -4.3
